From PubChem BioAssay
SARS PLP yeast – qHTS of Yeast-based Assay for SARS-CoV PLP; S. cerevisiae expressing SARS-CoV PLpro, growth rescue; control for the full effect not named in the record; Potency, µM (highest dose often 32.9 µM), for inactives: top-dose activity, positive = growth rescue; 330,000 tested, 0.19% active; AID 485353, 2010; active means well fitted rising curve with a large enough effect; inconclusive means small, poorly fitted or top-dose-only effect; inactive means no such curve, though single readings can be large or run the other way; further: 0% is about no effect; nearly all actives have a fitted effect of over 55% in size; growth read by luminescence after 48 h
Cruzain Triton – qHTS Assay for Promiscuous and Specific Inhibitors of Cruzain (with detergent) | Cruzipain (Trypanosoma cruzi), P25779 | purified cruzain, Z-FR-AMC fluorescence, 0.01% Triton | Potency, µM, inactives show max response, negative = inhibition, hits mostly inhibitors | 200,000 tested, 0.43% active;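 further: plate controls were neutral wells for no effect and buffer without enzyme for full effect; nearly all actives have a fitted effect of over 40% in size; top concentration of the series not given in the record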
Target sequence (P25779 123-467 limits assumed): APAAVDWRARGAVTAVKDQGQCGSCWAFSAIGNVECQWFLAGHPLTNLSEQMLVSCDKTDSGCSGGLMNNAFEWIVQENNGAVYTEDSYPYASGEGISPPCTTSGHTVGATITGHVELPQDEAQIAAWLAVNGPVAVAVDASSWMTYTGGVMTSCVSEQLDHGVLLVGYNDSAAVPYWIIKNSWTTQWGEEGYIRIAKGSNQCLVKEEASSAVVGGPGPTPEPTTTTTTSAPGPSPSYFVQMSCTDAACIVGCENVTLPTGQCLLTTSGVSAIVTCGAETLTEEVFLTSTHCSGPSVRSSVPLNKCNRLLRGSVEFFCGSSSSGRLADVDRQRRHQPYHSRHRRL
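Purified cruzain (1.5 nM final) was preincubated with compounds for 15 min at room temperature in 100 mM sodium acetate pH 5.5, 5 mM DTT, 0.01% Triton X-100. Reaction started with 2 uM Z-FR-AMC; AMC fluorescence change over 60 s gave activity.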
LASV entry inh – qHTS for Inhibitors of binding or entry into cells for Lassa Virus | Lassa virus pseudotype entry inhibition, cell reporter; control for the full effect not named in the record | Potency, µM (titrated, usually from 37.9 µM), without a hit: at the highest dose activity change, negative = inhibition, actives largely listed as inhibitors | 300,000 tested, 1.2% active; active means well fitted inhibition curve with a large enough effect; inconclusive means small, poorly fitted or top-dose-only effect, or effect the other way; inactive means flat fitted curve, though single readings scatter; tested in HEK293 cells; further: on the % scale 0 is the no-effect control and ±100 the full control effect; nearly all actives have a fitted effect of over 50% in size; luciferase read-out
Cruzain noTriton – qHTS Assay for Promiscuous and Specific Inhibitors of Cruzain (without detergent); purified cruzain, Z-FR-AMC fluorescence, no detergent; 200,000 tested, 2.3% active; Potency, µM, without a hit: max response, negative = inhibition, actives largely listed as inhibitors; AID 1476, 2009; Cruzipain (Trypanosoma cruzi), P25779;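 further: plate controls were enzyme without inhibitor for no effect and buffer without enzyme for full effect; nearly all actives have a fitted effect of over 40% in size; top concentration of the series not given in the record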
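Purified cruzain at 1.5 nM, pre-incubated 15 min with compound at room temperature in 100 mM sodium acetate pH 5.5, 5 mM DTT, 0.00005% Triton X-100. Reaction started with 2 uM Z-FR-AMC; AMC fluorescence increase over 60 s gives rate.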
RE007 growth inh – qHTS Assay for Inhibitors of the HIV-1 protein Vpr | AID 651644, 2012 | 360,000 tested, 0.21% active | S. pombe RE007 Vpr strain, BacTiter-Glo ATP luminescence, 24 h; control for the full effect not named in the record | Potency, µM (top dose mostly 92.2 µM), without a hit: at the highest dose activity change, negative = less growth; active = well fitted falling curve with a large enough effect; inconclusive = small, poorly fitted or top-dose-only effect; inactive = no such curve, though single readings can be large or run the other way;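 further: on the % scale 0 is the no-effect control and ±100 the full control effect; nearly all actives have a fitted effect of over 50% in size; the assay follows cell death caused by Vpr and the record does not say whether a fall means rescue or toxicity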
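Fission yeast strain RE007, carrying one chromosomally integrated HIV-1 vpr copy, was seeded at OD 0.01 in PMG+AL medium with 23 nL pinned compound. After 24 h at 30 °C and 99% humidity, viability was read by BacTiter-Glo luminescence.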
StopGo reporter – High Throughput Screening for Foot and Mouth Disease Virus Antivirals; human cells with a luciferase reporter of 2A StopGo recoding; control for the full effect not named in the record; 410,000 tested, 1.2% active; Potency, µM (top dose mostly 57.9 µM), for inactives: top-dose signal change, negative = less light; active = well fitted falling curve with a large enough effect; inconclusive = small, poorly fitted or top-dose-only effect; inactive = no such curve, though single readings can be large or run the other way; tested in HEK293T cells; further: on the % scale 0 is the no-effect control and ±100 the full control effect; nearly all actives have a fitted effect of over 45% in size; luciferase light after 4 h
NS1 inh – qHTS Assay for Inhibitors of Influenza NS1 Protein Function. S. cerevisiae slowed by influenza A NS1, growth recovery by OD600. Potency, µM (titrated, usually from 46.1 µM), for the others: at the highest dose activity, positive = more growth. 270,000 tested, 0.4% active. AID 2326, 2010; active means well fitted rising curve with a large enough effect; inconclusive means small, poorly fitted or top-dose-only effect; inactive means no such curve, though single readings can be large or run the other way; further: nearly all actives have a fitted effect of over 50% in size
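In this qHTS, NS1 from influenza A is expressed in budding yeast, where it slows growth. Cells are switched from glucose to 2% galactose medium (pH 6.0, -URA), treated with compound, and growth recovery is read at OD600.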
Marburg entry inh – qHTS for inhibitors of binding or entry into cells for Marburg Virus. Marburg virus pseudotyped entry inhibition, cell reporter; control for the full effect not named in the record; about a third of the inactives were read at about 46 µM. Potency, µM (series often up to 37.8 µM), without a hit: at the highest dose activity change, negative = inhibition, most hits filed as inhibitors. 300,000 tested, 1.8% active. AID 540276, 2011; active = well fitted inhibition curve with a large enough effect; inconclusive = small, poorly fitted or top-dose-only effect, or effect the other way; inactive = flat fitted curve, though single readings scatter; tested in HEK293 cells; about a fifth of its hits are not listed in these tables; further: on the % scale 0 is the no-effect control and ±100 the full control effect; luciferase read-out
The depositor's hits bear a star; & = joins results of further samples; [ ] = dose if it differs, or a comment. Unless noted, the call rests on the fitted dose curve; in most records, active means well fitted curve in the direction sought with a large enough effect; inconclusive means small, poorly fitted or top-dose-only effect, or another doubt; inactive means no such curve, though single readings can be large; an effect the other way counts as inactive or inconclusive. Potency means the concentration at half of the fitted maximal effect. Not a hit list. Share with any hit: about 4.6%.

What do the screens show for `Cc1ccnc(NC(=O)CCC(=O)N(CC(=O)NCc2ccccc2)c2ccc3c(c2)OCO3)c1`?
SARS PLP yeast: 2%; Cruzain Triton: -2.9%; LASV entry inh: -24%; Cruzain noTriton: 21%; RE007 growth inh: -26%; StopGo reporter: 6%; NS1 inh: 1%; Marburg entry inh: -24%

What do the screens show for `CCN(CC)c1ccc(NC(=O)C2CCN(S(=O)(=O)c3c(C)noc3/C=C/c3ccccc3F)CC2)c(C)c1`?
Cruzain Triton: 1.3%; LASV entry inh: 25%[46.1 µM]; Cruzain noTriton: -10%; StopGo reporter: 2%

How did CC(C)(C)NS(=O)(=O)c1ccc2[nH]c3c(c2c1)CCCCC3 do in these assays?
SARS PLP yeast: -1%; LASV entry inh: -21%; RE007 growth inh: 2%; StopGo reporter: 61%[activator]; NS1 inh: 1%; Marburg entry inh: inconclusive

Results for CCc1ccccc1N1C(=O)[C@@H]2Cc3ccccc3CN2C1=O ?
SARS PLP yeast: 0%; RE007 growth inh: -2%; StopGo reporter: -20%; NS1 inh: -2%

What do the screens show for `CC(C)(C)OC(=O)N1CCC(CNC(=O)c2ccc(F)cc2F)CC1`?
SARS PLP yeast: -2%; LASV entry inh: inconclusive; RE007 growth inh: 2%; StopGo reporter: -15%; NS1 inh: 1%; Marburg entry inh: 3%[46.1 µM]

How did C=CCSc1nc(O)c(C2OC(=O)c3c2ccc(OC)c3OC)c(=O)n1-c1ccccc1 (stereo not given) do in these assays?
SARS PLP yeast: -1%; RE007 growth inh: -8%; StopGo reporter: -5%; NS1 inh: 6%

How did COc1ccc(-n2nc(C(N)=O)nc2-c2ccccc2)cc1 do in these assays?
SARS PLP yeast: 1%; LASV entry inh: -22%; RE007 growth inh: 3%; StopGo reporter: -4%; NS1 inh: 24%; Marburg entry inh: inconclusive

What do the screens show for `Cc1cccc(OCC(=O)OCc2cc(=O)n3nc(-c4cccs4)sc3n2)c1`?
Cruzain Triton: -3.1%; LASV entry inh: inconclusive; Cruzain noTriton: -25%; StopGo reporter: -7%

Results for Cc1cccc2[nH]c(CN(C)Cc3nc(CC4CC4)no3)nc12 ?
SARS PLP yeast: -1%; LASV entry inh: -6%[46.1 µM]; RE007 growth inh: 4%; StopGo reporter: 0%; NS1 inh: 1%; Marburg entry inh: 4%[46.1 µM]

How did O=C(Nc1ccc(-c2ccc3nncn3n2)cc1)C1CCCC1 do in these assays?
SARS PLP yeast: -2%; LASV entry inh: 10%[46.1 µM]; RE007 growth inh: 0%; StopGo reporter: 21%; Marburg entry inh: inconclusive

Results for Cc1ccccc1C(=O)N1CCN(c2ccccn2)CC1 ?
SARS PLP yeast: 7%; Cruzain Triton: 4.7%; LASV entry inh: 0%; Cruzain noTriton: -4%; RE007 growth inh: 11%; StopGo reporter: -11%; NS1 inh: 4%; Marburg entry inh: -7%

How did CC(C)(C)c1cnnn1-c1ccc(-c2csc(N)n2)cc1 do in these assays?
SARS PLP yeast: -1%; Cruzain Triton: 8.3%; LASV entry inh: 15%; Cruzain noTriton: 3%; RE007 growth inh: 2%; NS1 inh: -2%; Marburg entry inh: 3%

What do the screens show for `CC(NC(=O)Cn1c(=O)[nH]c2ccsc2c1=O)C12CC3CC(CC(C3)C1)C2` (stereo not given)?
SARS PLP yeast: -8%; Cruzain Triton: 4.0%; LASV entry inh: 6%; Cruzain noTriton: -2%; RE007 growth inh: 5%; StopGo reporter: inconclusive; NS1 inh: 7%; Marburg entry inh: -24%

What do the screens show for `CC(C)Cc1nnc(NC(=O)CCC(=O)N2CCN(Cc3ccc(Cl)cc3)CC2)s1`?
SARS PLP yeast: 6%; RE007 growth inh: 1%; StopGo reporter: inconclusive; NS1 inh: -22%

Results for Cc1cccc(C(=O)Nc2ccc(NC(=O)c3ccccc3)cc2)c1 ?
SARS PLP yeast: 1%; LASV entry inh: 11%[46.1 µM]; RE007 growth inh: -19%; StopGo reporter: -10%; NS1 inh: -2%; Marburg entry inh: inconclusive

Results for O=c1cc(O)nc(SCc2ccc(Cl)cc2)[nH]1 ?
SARS PLP yeast: 13%; Cruzain Triton: -4.0%; LASV entry inh: 14%; Cruzain noTriton: -6%; RE007 growth inh: 7%; StopGo reporter: -3%; NS1 inh: inconclusive; Marburg entry inh: 12%

How did Cn1c(=O)c2c(nc(NCCc3ccccc3)n2Cc2ccc(F)cc2)n(C)c1=O do in these assays?
SARS PLP yeast: -10%; Cruzain Triton: 4.0%; Cruzain noTriton: 1%; RE007 growth inh: 3%; StopGo reporter: inconclusive; NS1 inh: -101%

How did Cc1ccc(C)c(NC(=S)N2CCCC2)c1 do in these assays?
SARS PLP yeast: -1%; LASV entry inh: 5%[46.1 µM]; RE007 growth inh: 0%; StopGo reporter: 0%; NS1 inh: -7%; Marburg entry inh: 16%[46.1 µM]

What do the screens show for `CCn1c(SCC(=O)Nc2cccc(NC(=O)c3ccco3)c2)nnc1-c1cccs1`?
SARS PLP yeast: 11%; Cruzain Triton: -0.4%; LASV entry inh: inconclusive; Cruzain noTriton: -8%; RE007 growth inh: -11%; StopGo reporter: -27%; NS1 inh: -12%; Marburg entry inh: inconclusive

Results for CC(NC(=O)COC(=O)/C=C/c1ccc([N+](=O)[O-])cc1)c1ccccc1 (stereo not given) ?
SARS PLP yeast: 16%; Cruzain Triton: -4.7%; LASV entry inh: 9%; Cruzain noTriton: -17%; RE007 growth inh: 15%; StopGo reporter: -5%; NS1 inh: 9%; Marburg entry inh: -5%

How did O=Cc1ccc(Oc2cc(-c3ccccc3)nc(-c3ccccc3)n2)cc1 do in these assays?
SARS PLP yeast: 23%; Cruzain Triton: -4.7%; LASV entry inh: 1%; Cruzain noTriton: -20%; RE007 growth inh: 5%; StopGo reporter: -16%; NS1 inh: 4%; Marburg entry inh: inconclusive

Results for CS(=O)(=O)N(CC(=O)NCc1ccncc1)Cc1ccc(Cl)cc1 ?
SARS PLP yeast: -5%; Cruzain Triton: -0.8%; LASV entry inh: 7%; Cruzain noTriton: -1%; RE007 growth inh: 0%; StopGo reporter: -15%; NS1 inh: 0%; Marburg entry inh: 8%

Results for CC1=C(C(=O)Nc2ccccc2)C2(CCCCC2)C(C#N)=C(S)N1 ?
SARS PLP yeast: 8%; Cruzain Triton: -25%; LASV entry inh: 0%; Cruzain noTriton: -20%; RE007 growth inh: -7%; StopGo reporter: -4%; NS1 inh: 27%; Marburg entry inh: -28%[46.1 µM]

Results for CC(C)c1cccc(C(C)C)c1OCCCCN1CCCC1 ?
SARS PLP yeast: 0%; Cruzain Triton: -0.9%; LASV entry inh: -22%; Cruzain noTriton: -2%; RE007 growth inh: 1%; StopGo reporter: -6%; NS1 inh: -14%; Marburg entry inh: inconclusive

How did COc1ccc(N(C(C)C(=O)Nc2ccc(S(=O)(=O)N3CCCCC3)cc2)S(C)(=O)=O)cc1 (stereo not given) do in these assays?
SARS PLP yeast: 13%; LASV entry inh: inconclusive; RE007 growth inh: -8%; StopGo reporter: -16%; NS1 inh: -4%; Marburg entry inh: inconclusive

Results for CCNc1c(NC(=O)c2cccs2)c(=O)oc2ccccc12 ?
SARS PLP yeast: -2%; LASV entry inh: 6%; RE007 growth inh: -7%; StopGo reporter: 0%; NS1 inh: -5%; Marburg entry inh: 1%[46.1 µM]

Results for COc1ccc(N2CC(C(=O)N[C@H](C(=O)NC3CCCC3)C(C)C)CC2=O)cc1 (stereo not given in full) ?
SARS PLP yeast: 2%; LASV entry inh: -6%[46.1 µM]; RE007 growth inh: -4%; StopGo reporter: 1%; NS1 inh: 3%; Marburg entry inh: 28%[46.1 µM]

How did O=C(NCc1ccccc1)C(c1ccccn1)N(C(=O)c1csnn1)c1ccccc1F (stereo not given) do in these assays?
SARS PLP yeast: 0%; LASV entry inh: -19%; RE007 growth inh: 7%; StopGo reporter: -8%; NS1 inh: 13%; Marburg entry inh: -4%[46.1 µM]

Results for O=C(NCCCn1ccnc1)c1cc2nc(-c3ccc(Br)cc3)cc(C(F)(F)F)n2n1 ?
SARS PLP yeast: -4%; Cruzain Triton: -11%; LASV entry inh: inconclusive; Cruzain noTriton: -3%; RE007 growth inh: -2%; StopGo reporter: -1%; NS1 inh: -7%; Marburg entry inh: inconclusive

How did O=C(NCCO)C(O)C(O)C(=O)NCCO (stereo not given) do in these assays?
SARS PLP yeast: 0%; LASV entry inh: -12%; RE007 growth inh: -9%; StopGo reporter: 10%; NS1 inh: 1%; Marburg entry inh: 3%[46.1 µM]

How did O=C(CN(c1ccc(F)cc1)S(=O)(=O)c1ccc2c(c1)OCCO2)Nc1ccc2c(c1)OCO2 do in these assays?
SARS PLP yeast: -3%; Cruzain Triton: -2.5%; LASV entry inh: inconclusive; Cruzain noTriton: inconclusive; RE007 growth inh: -9%; StopGo reporter: 8%; NS1 inh: 17%; Marburg entry inh: 2%&-14%

How did CCOC(=O)N/N=C/c1c(C)nn(-c2ccccc2Cl)c1Cl do in these assays?
SARS PLP yeast: -14%; Cruzain Triton: -3.6%; LASV entry inh: inconclusive; Cruzain noTriton: -2%; RE007 growth inh: 1%; StopGo reporter: 20%; NS1 inh: -5%; Marburg entry inh: inconclusive

Fetched by compound from above:
How did CCOC(=O)N/N=C/c1c(C)nn(-c2ccccc2Cl)c1Cl do in these assays?
SARS PLP yeast: -14%; Cruzain Triton: -3.6%; LASV entry inh: inconclusive; Cruzain noTriton: -2%; RE007 growth inh: 1%; StopGo reporter: 20%; NS1 inh: -5%; Marburg entry inh: inconclusive

How did COc1ccc(N(C(C)C(=O)Nc2ccc(S(=O)(=O)N3CCCCC3)cc2)S(C)(=O)=O)cc1 (stereo not given) do in these assays?
SARS PLP yeast: 13%; LASV entry inh: inconclusive; RE007 growth inh: -8%; StopGo reporter: -16%; NS1 inh: -4%; Marburg entry inh: inconclusive
